Screening data deposited in PubChem by National Center for Advancing Translational Sciences (NCATS).
NS1 function inh: qHTS Assay for Inhibitors of Influenza NS1 Protein Function | 270,000 compounds, 0.4% hits | S. cerevisiae slowed by influenza A NS1, growth recovery by OD600 | Potency, µM (top dose mostly 46.1 µM), for the others: at the highest dose activity, positive = more growth; further: actives are rising curves; nearly all actives have a fitted effect of over 50% in size
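S. cerevisiae expressing influenza A NS1, grown in glucose, washed, then diluted 1:100 into pH 6.0 -URA galactose medium with 23 nl compound. Growth recovery read as OD600; NS1-free strain serves as control.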
Cruzain inh Det: qHTS Assay for Promiscuous and Specific Inhibitors of Cruzain (with detergent); 200,000 compounds, 0.43% hits; purified cruzain, Z-FR-AMC fluorescence, 0.01% Triton; Potency, µM, for the others: max response, negative = inhibition, hits mostly inhibitors; active means well fitted curve in the direction sought with a large enough effect; inconclusive means small, poorly fitted or top-dose-only effect, or another doubt; inactive means no such curve, though single readings can be large; an effect the other way counts as inactive or inconclusive;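 further: plate controls were neutral wells for no effect and buffer without enzyme for full effect; nearly all actives have a fitted effect of over 40% in size; top concentration of the series not given in the record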
Target sequence (P25779 123-467 limits assumed): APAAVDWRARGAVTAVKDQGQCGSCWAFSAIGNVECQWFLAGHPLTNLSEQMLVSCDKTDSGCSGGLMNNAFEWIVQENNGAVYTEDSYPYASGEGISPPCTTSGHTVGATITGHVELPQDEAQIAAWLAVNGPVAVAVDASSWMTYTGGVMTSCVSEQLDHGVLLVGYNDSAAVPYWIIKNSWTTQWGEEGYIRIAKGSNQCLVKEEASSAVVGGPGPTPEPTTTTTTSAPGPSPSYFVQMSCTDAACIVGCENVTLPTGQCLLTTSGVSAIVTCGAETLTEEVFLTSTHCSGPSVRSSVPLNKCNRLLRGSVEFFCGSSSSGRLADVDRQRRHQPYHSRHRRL
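Enzyme 1.5 nM, Z-FR-AMC 2 uM, NaOAc 100 mM pH 5.5, DTT 5 mM, Triton X-100 0.01%; 15 min RT compound preincubation; kinetic ex360/em450, 60 s delta.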
Cruzain noTriton: qHTS Assay for Promiscuous and Specific Inhibitors of Cruzain (without detergent) | Cruzipain (Trypanosoma cruzi), P25779 | Potency, µM, without a hit: max response, negative = inhibition, hits mostly inhibitors | purified cruzain, Z-FR-AMC fluorescence, no detergent | 200,000 compounds, 2.3% hits; active means well fitted curve in the direction sought with a large enough effect; inconclusive means small, poorly fitted or top-dose-only effect, or another doubt; inactive means no such curve, though single readings can be large; an effect the other way counts as inactive or inconclusive;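 further: plate controls were enzyme without inhibitor for no effect and buffer without enzyme for full effect; nearly all actives have a fitted effect of over 40% in size; top concentration of the series not given in the record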
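Purified cruzain at 1.5 nM, pre-incubated 15 min with compound at room temperature in 100 mM sodium acetate pH 5.5, 5 mM DTT, 0.00005% Triton X-100. Reaction started with 2 uM Z-FR-AMC; AMC fluorescence increase over 60 s gives rate.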
SARS PLP yeast: qHTS of Yeast-based Assay for SARS-CoV PLP; S. cerevisiae expressing SARS-CoV PLpro, growth rescue; control for the full effect not named in the record; Potency, µM (doses to about 32.9 µM), without a hit: top-dose activity, positive = growth rescue; 330,000 compounds, 0.19% hits; AID 485353, 2010; further: 0% is about no effect; nearly all actives have a fitted effect of over 55% in size; growth read by luminescence after 48 h
2A StopGo: High Throughput Screening for Foot and Mouth Disease Virus Antivirals; Potency, µM (titrated, usually from 57.9 µM), without a hit: at the highest dose signal change, negative = less light; 410,000 compounds, 1.2% hits; human cells with a luciferase reporter of 2A StopGo recoding; control for the full effect not named in the record; AID 1159524, 2015; active = well fitted falling curve with a large enough effect; inconclusive = small, poorly fitted or top-dose-only effect; inactive = no such curve, though single readings can be large or run the other way; tested in HEK293T cells; further: on the % scale 0 is the no-effect control and ±100 the full control effect; nearly all actives have a fitted effect of over 45% in size; luciferase light after 4 h
RE007 growth inh: qHTS Assay for Inhibitors of the HIV-1 protein Vpr | S. pombe RE007 Vpr strain, BacTiter-Glo ATP luminescence, 24 h; control for the full effect not named in the record | Potency, µM (series often up to 92.2 µM), without a hit: top-dose activity change, negative = less growth | 360,000 compounds, 0.21% hits | AID 651644, 2012; active = well fitted falling curve with a large enough effect; inconclusive = small, poorly fitted or top-dose-only effect; inactive = no such curve, though single readings can be large or run the other way;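 further: on the % scale 0 is the no-effect control and ±100 the full control effect; nearly all actives have a fitted effect of over 50% in size; the assay follows cell death caused by Vpr and the record does not say whether a fall means rescue or toxicity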
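Fission yeast strain RE007, carrying one chromosomally integrated HIV-1 vpr copy, was seeded at OD 0.01 in PMG+AL medium with 23 nL pinned compound. After 24 h at 30 °C and 99% humidity, viability was read by BacTiter-Glo luminescence.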
MARV entry inh: qHTS for inhibitors of binding or entry into cells for Marburg Virus. Potency, µM (highest dose often 37.8 µM), without a hit: top-dose activity change, negative = inhibition, most hits filed as inhibitors. 300,000 compounds, 1.8% hits. Marburg virus pseudotyped entry inhibition, cell reporter; control for the full effect not named in the record; about a third of the inactives were read at about 46 µM; active = well fitted inhibition curve with a large enough effect; inconclusive = small, poorly fitted or top-dose-only effect, or effect the other way; inactive = flat fitted curve, though single readings scatter; tested in HEK293 cells; about a fifth of its hits are not listed in these tables; further: on the % scale 0 is the no-effect control and ±100 the full control effect; luciferase read-out
LASV entry inh: qHTS for Inhibitors of binding or entry into cells for Lassa Virus | Potency, µM (titrated, usually from 37.9 µM), without a hit: top-dose activity change, negative = inhibition, usual class: inhibitors | 300,000 compounds, 1.2% hits | AID 540256, 2011 | Lassa virus pseudotype entry inhibition, cell reporter; control for the full effect not named in the record; active means well fitted inhibition curve with a large enough effect; inconclusive means small, poorly fitted or top-dose-only effect, or effect the other way; inactive means flat fitted curve, though single readings scatter; tested in HEK293 cells; further: on the % scale 0 is the no-effect control and ±100 the full control effect; nearly all actives have a fitted effect of over 50% in size; luciferase read-out
Starred values were filed as active, the others as inactive; ? = inconclusive; . = no result given; [ ] = another dose, or the depositor's remark. Unless noted, the call rests on the fitted dose curve; in most records, active means well fitted rising curve with a large enough effect; inconclusive means small, poorly fitted or top-dose-only effect; inactive means no such curve, though single readings can be large or run the other way. Potency means the concentration at half of the fitted maximal effect. The order is random (roughly 4.7% active in at least one column).

SMILES | NS1 function inh | Cruzain inh Det | Cruzain noTriton | SARS PLP yeast | 2A StopGo | RE007 growth inh | MARV entry inh | LASV entry inh
CCC(CC)c1nnc(NC(=O)CCc2ccccc2)s1 | 4% | . | . | -3% | -11% | 0% | 3%[46.1 µM] | -8%[46.1 µM]
Cc1cc(Cl)ccc1OCC(=O)Nc1cccnc1 | -12% | . | . | -3% | 22% | 5% | ? | 7%
CCOc1ccc(Nc2nc(Nc3ccc(O)cc3)nc(C)c2[N+](=O)[O-])cc1 | -7% | . | . | 0% | ? | -12% | 0%[46.1 µM] | ?
O=C(Cc1c[nH]c2ccccc12)N[C@@H](Cc1c[nH]c2ccccc12)C(=O)O | -3% | . | . | -1% | 1% | 3% | -3%[46.1 µM] | 21%[46.1 µM]
CC(=O)N1CCN(C(=O)c2cc(S(=O)(=O)N3CCCCC3)ccc2Cl)CC1 | . | . | . | . | -10% | 6% | -23% | 7%
CCOC(=O)c1[nH]c2cc(OC)c(OC)cc2c1NC(=O)CN1CCN(C)CC1 | -7% | -14% | 19% | 1% | . | . | 0% | .
O=C(NNC(=O)c1cccs1)c1ccc(F)cc1 | 2% | . | . | -6% | 43%[activator] | -9% | 22%[46.1 µM] | 8%[46.1 µM]
CC(NC(=O)COC(=O)/C(=C/c1cccs1)c1cccs1)c1ccccc1 (stereo not drawn) | -25% | -6.8% | -18% | 7% | -55% | 3% | -16% | -20%
CCCCCCNc1c(C(=O)OCC)c(=O)[nH]c2ccccc12 | 2% | -0.2% | 1% | -3% | -21% | 3% | ? | 1%
COc1cccc(CNC(=O)Cn2c(SCC(=O)Nc3ccc(F)cc3)nc3ccccc32)c1 | . | 7.1% | -9% | . | -11% | . | . | ?
COc1ccccc1OCc1nc(C#N)c(NCCCn2ccnc2)o1 | 1% | . | . | -1% | -9% | 7% | ? | ?
O=C(O)c1cc(N2C(=O)C3C4C=CC(C4)C3C2=O)ccc1NCc1cccnc1 (stereo not drawn) | 3% | 1.5% | -5% | 0% | -3% | 13% | 4% | -2%
CCOC(=O)C1CCN(C(=O)N2CCOCC2)CC1 | 18% | 0.4% | 1% | -3% | -13% | 4% | -8%[46.1 µM] | -3%
COc1ccc2oc(=Nc3cc(F)ccc3F)c(C(N)=O)cc2c1 | . | . | . | -6% | -3% | -13% | ? | -12%
CNC(=S)N1CCN(c2c(F)cc3c(=O)c(C(=O)O)cn(C4CC4)c3c2OC)CC1C (stereo not drawn) | 3% | -3.7% | 14% | -12% | -5% | 1% | 1% | 27%
Cn1nc(C(F)(F)F)c(C#N)c1N1CCN(c2ccccn2)CC1 | . | . | . | -11% | ? | -3% | 27%[46.1 µM] | -13%
COc1ccc(CC2(CO)CCN(Cc3cccnc3)CC2)cc1 | 4% | . | . | -1% | 1% | 1% | 23%[46.1 µM] | 5%
COc1cccc(/C=N/NC(=O)CSc2cccc3cccnc23)c1 | -65% | . | . | -6% | ? | -7% | . | .
CC(C)CCn1c(=O)c2ccccc2n2c(CCC(=O)NC3CCN(Cc4ccccc4)CC3)nnc12 | 4% | . | . | -13% | 8% | -8% | 17%[46.1 µM] | 20%[46.1 µM]
COCCCN(Cc1ccco1)C(=O)c1cc2c(s1)-c1ccc(Cl)cc1S(=O)(=O)C2 | -1% | . | . | -2% | -3% | -12% | 24%[46.1 µM] | -2%[46.1 µM]
COc1ccc(C(=O)N/C(=C\c2ccccc2)C(=O)Nc2ccccc2C(=O)O)cc1 | . | . | . | . | 6% | 3% | 16% | -2%
CCS(=O)(=O)c1cccc(C(=O)N2CCN(c3nc4c(C)ccc(Cl)c4s3)CC2)c1 | . | 7.9µM* | ? | . | -9% | . | . | ?
COC(=O)C1=C(C)NC(C)=C(C(=O)OCC2CCCO2)C1c1cccc(Cl)c1 (stereo not drawn) | 5% | . | . | 4% | -20% | 7% | ? | -1%
CCn1cc(C(=O)NCc2ccco2)c2cc(OC)c(OC)cc2c1=O | -13% | -4.5% | 3% | -1% | -23% | -10% | -2% | 2%
COc1ccccc1-c1nc(N)n[nH]1 | 2% | . | . | 2% | -11% | 0% | . | .
CCCN1C(=O)C2(c3ccccc31)c1c(oc3ccccc3c1=O)C(=O)N2CCCOC(C)C (stereo not drawn) | . | -4.4% | 18% | . | 5% | . | -13%[46.1 µM] | 13%[46.1 µM]
CCCc1nc2oc3ccccc3c(=O)c2c(=O)n1-c1ccc(C)cc1 | -7% | . | . | -1% | 53%[activator] | 5% | . | .
COc1cc(CNc2ncn[nH]2)cc(Br)c1OC | -1% | 7.5% | -2% | -7% | 5% | -4% | 2% | 13%[14.3 µM]
O=C(c1ccc(N2CCCC2=O)cc1)N1CCN(c2ccccc2F)CC1 | -7% | . | . | 24% | -13% | 2% | . | .
Cc1cccc(/C=C2\CCC(C3CCCC3)C2=O)c1 (stereo not drawn) | -3% | -5.3% | 0% | 6% | 85%[activator] | -2% | ? | -9%
CCN(CC)c1nc2c(c(=O)[nH]c(=O)n2C)n1CCOc1ccccc1 | 15% | . | . | 2% | ? | 23% | -2% | -6%
Clc1ccc2oc3c(Cl)ncnc3c2c1 | -27% | -7.5% | -2% | -7% | ? | 9% | 0% | -25%[46.1 µM]
N#C/C(=C\c1ccc(O)c(O)c1)S(=O)(=O)c1ccccc1 | -48% | -4.0% | -13% | 6% | 6% | -3% | -34% | 4%
COc1cc(CNCCSc2nnnn2C)cc(Br)c1OCc1ccc(F)cc1 | -7% | 3.4% | 1% | -12% | ? | 1% | ? | -12%
O=C1CN(C(=O)c2ccc(Br)o2)C(c2ccccc2)c2cc(Cl)ccc2N1 (stereo not drawn) | 12% | -3.8% | ? | -5% | -8% | 19% | . | .
COc1ccc(C)cc1NC(=O)C(NS(=O)(=O)c1cccs1)c1ccccc1 (stereo not drawn) | . | -2.4% | -25% | . | -12% | . | -12%[46.1 µM] | -11%[46.1 µM]
FC(F)(F)c1ccc(-n2cnc3ccccc32)nc1 | -13% | . | . | -2% | 27% | -5% | . | .
Nc1nc(C2CC(=O)OC23CCCCC3)cs1 (stereo not drawn) | 9% | 0.2% | -8% | 0% | -15% | 37% | ? | 16%
O=C(NCc1nnc(SCC(=O)N2CCN(c3ccccc3)CC2)o1)c1ccco1 | -4% | 0.3% | -3% | -1% | 1% | 0% | -21%[46.1 µM] | -13%
CCN(C(=O)c1cc(S(=O)(=O)N2CCOCC2)cn1C)c1ccc(OC)cc1 | . | -4.1% | -4% | . | -17% | . | . | 22%[46.1 µM]
COC(=O)c1ccccc1NC(=O)CSc1nnnn1C | -2% | 1.5% | 16% | -15% | 14% | 8% | 17% | 15%
CCOC(=O)c1ccc2cccc(C)n2c1=O | -3% | 1.9% | 0% | 5% | 11% | -2% | ? | 17%
Cc1ccc(SCC(=O)NCc2ccco2)cc1 | 1% | ? | -24% | -18% | 28% | -2% | -10% | 16%
CCc1cccc(CC)c1NC(=O)C1CSC2(C)CCC(=O)N12 (stereo not drawn) | . | . | . | -6% | -11% | -6% | 6% | -23%
Cc1ccc(S(=O)(=O)N2CCN(c3nc4ccccc4nc3-n3nc(C)cc3C)CC2)cc1 | -68% | -2.6% | 16% | 5% | 0% | 9% | -9%[46.1 µM] | -7%
Cc1ccccc1C(=O)OC(C)CN1CCN(C)CC1 (stereo not drawn) | . | . | . | 5% | 6% | 2% | -16% | -1%
Cc1nc(-c2ccc(S(=O)(=O)Nc3cc(Cl)ccc3C)cc2)co1 | . | -8.3% | 9% | . | 33%[activator] | . | . | -10%[46.1 µM]
Cc1cc(C(=O)CS(=O)(=O)c2ccc(Cl)cc2)cc(C)c1O | -1% | . | . | 1% | 10% | 1% | . | .

Compound profiles (already shown). Values in the order: NS1 function inh	Cruzain inh Det	Cruzain noTriton	SARS PLP yeast	2A StopGo	RE007 growth inh	MARV entry inh	LASV entry inh
CCOC(=O)c1ccc2cccc(C)n2c1=O across the screens: -3%	1.9%	0%	5%	11%	-2%	?	17%
CCN(C(=O)c1cc(S(=O)(=O)N2CCOCC2)cn1C)c1ccc(OC)cc1 across the screens: .	-4.1%	-4%	.	-17%	.	.	22%[46.1 µM]
Cc1ccccc1C(=O)OC(C)CN1CCN(C)CC1 (stereo not drawn) across the screens: .	.	.	5%	6%	2%	-16%	-1%
Cc1cc(C(=O)CS(=O)(=O)c2ccc(Cl)cc2)cc(C)c1O across the screens: -1%	.	.	1%	10%	1%	.	.
O=C(NCc1nnc(SCC(=O)N2CCN(c3ccccc3)CC2)o1)c1ccco1 across the screens: -4%	0.3%	-3%	-1%	1%	0%	-21%[46.1 µM]	-13%

Next results.
SMILES | NS1 function inh | Cruzain inh Det | Cruzain noTriton | SARS PLP yeast | 2A StopGo | RE007 growth inh | MARV entry inh | LASV entry inh
CCCCCC(=O)Nc1cccc(C2=NOC3(C2)C[C@@H](C(N)=O)N(C(=O)Cc2ccc([N+](=O)[O-])cc2)C3)c1 (stereo partly drawn) | 1% | . | . | 2% | 0% | 5% | . | .
CN(C)CCCCCN(C)Cc1cc2ccccc2o1 | . | . | . | -5% | -4% | -13% | ? | .
COc1ccc(C(=O)NCc2nnc(SCC(=O)Nc3cccc(F)c3)o2)cc1 | . | . | . | 1% | 2% | 13% | -2%[46.1 µM] | 10%
CCc1ccc(NC(=O)CN2C(=O)C3CCCN3c3ccc(S(=O)(=O)N(CC)CC)cc32)cc1 (stereo not drawn) | . | -6.3% | ? | . | 9% | . | . | -5%[46.1 µM]
